Source: PubChem BioAssay
PINK1 expr mod = PINK1 expression modulation. actives 0.2% (n = 410,000). AID 624263. PINK1 immunofluorescence, high-content cytometry, 24 h. Potency, µM (highest dose often 76.6 µM), inactives show at the top dose activation (PINK1 increase), hits mostly activators; active = well fitted activation curve with a large enough effect; inconclusive = small, poorly fitted or top-dose-only effect; inactive = flat fitted curve, though single readings scatter; cell line not stated here;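 further: potency means the concentration at half of the fitted maximal effect; % of control where 0% means no effect; nearly all actives have a fitted effect of over 65% in size; a mitochondrial uncoupler was the plate control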
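Stable cell line treated 24 h with compounds at 5 concentrations (CCCP controls), then fixed and immunostained for PINK1 plus nuclear and cell stains; PINK1 immunofluorescence quantified by laser-scanning microplate cytometry.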
TRPV1 PAM = potentiators of human vanilloid receptor 1 (TRPV1); Q8NER1; TRPV1-expressing cells, Fluo-8 calcium influx, capsaicin EC20 potentiation; host cell line not named in the record; control for the full effect not named in the record; potentiation, % at 8.33 µM; actives 0.02% (n = 320,000); active means potentiation above 80%; inconclusive means 30% to 80%; inactive means below 30%; further: 0% is about no effect
Target sequence (Q8NER1 whole entry, looked up): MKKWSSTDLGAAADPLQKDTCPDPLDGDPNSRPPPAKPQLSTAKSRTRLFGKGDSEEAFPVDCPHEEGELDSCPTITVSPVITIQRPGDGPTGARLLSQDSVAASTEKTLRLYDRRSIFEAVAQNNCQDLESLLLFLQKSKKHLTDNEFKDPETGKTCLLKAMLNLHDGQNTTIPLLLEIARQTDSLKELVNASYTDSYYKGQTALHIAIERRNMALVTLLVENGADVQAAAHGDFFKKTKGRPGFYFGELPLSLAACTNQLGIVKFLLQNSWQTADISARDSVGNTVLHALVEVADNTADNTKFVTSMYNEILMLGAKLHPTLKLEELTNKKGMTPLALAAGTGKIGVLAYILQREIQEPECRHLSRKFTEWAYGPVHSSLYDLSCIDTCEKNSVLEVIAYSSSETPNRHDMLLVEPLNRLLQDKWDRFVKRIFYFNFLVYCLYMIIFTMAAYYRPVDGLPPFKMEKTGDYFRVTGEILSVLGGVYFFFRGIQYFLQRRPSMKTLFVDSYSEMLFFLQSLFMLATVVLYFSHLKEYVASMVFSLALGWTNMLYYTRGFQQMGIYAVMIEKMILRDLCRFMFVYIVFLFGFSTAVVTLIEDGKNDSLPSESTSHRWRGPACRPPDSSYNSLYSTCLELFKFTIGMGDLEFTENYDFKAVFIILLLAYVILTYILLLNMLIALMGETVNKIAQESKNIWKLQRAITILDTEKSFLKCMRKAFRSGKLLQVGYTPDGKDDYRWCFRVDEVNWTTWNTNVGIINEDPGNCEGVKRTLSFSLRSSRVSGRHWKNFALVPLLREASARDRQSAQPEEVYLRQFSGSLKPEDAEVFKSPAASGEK
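Cells expressing TRPV1 were dye-loaded with Fluo-8 and read kinetically: 10 s baseline, 3 min after compound (agonist portion), then 2 min after EC20 capsaicin (allosteric enhancer portion). Calcium-bound dye fluorescence at 480/520 nm.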
TRPML1 ag = agonists of human TRPML1 channel; Q9GZU1; AID 624414; TRPML1-expressing cells, Ca2+ dye fluorescence, FDSS; host cell line not named in the record; reference of the full effect not given here; activation, % (test concentration not listed); actives 0.12% (n = 410,000); in the data active = activation above about 50%; inconclusive = about 30% to 50%; inactive = below about 30%; further: 0% is about no effect; the text of the record puts the active cut at 80%
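Kinetic FDSS Ca2+ read in Tet-induced TRPML1-DL cells (ABD Ca8 dye plus quencher, 45-90 min RT loading): baseline, then compound, then 110 s agonist window; EC80 agonist 54-4 at 4uM final added afterwards for a 110 s antagonist window.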
TRPML1 inh = inhibitors of human TRPML1 channel. Q9GZU1. TRPML1-inducible cells, Ca2+ dye fluorescence, FDSS; stronger effect = lower value; inhibition of EC80 agonist-evoked calcium signal. activity change, negative = inhibition, % (concentration not given with the values). actives 0.02% (n = 390,000). AID 624415; in the data active means activity change below about -50%; inconclusive means about -30% to -50%; inactive means above about -30%;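 further: stimulus is agonist 54-4 at its EC80 concentration; on the % scale 0 is the no-effect control and ±100 the full control effect; compound concentration not given in the record; the text of the record puts the active cut at -80%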
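TRPML1-DL cells, Tet-induced overnight (~16 h, 37 °C) at 1,500 cells/well, were loaded with Ca8 no-wash dye plus quencher for 45-90 min at room temperature. Compounds were pinned during FDSS kinetic reading; agonist 54-4 at EC80 (4 uM final) then added.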
Menin-MLL FL inh = inhibitors of human menin-MLL interaction, wild-type MLL peptide; Fluorescence polarization, fluorescein-MLL peptide displacement from menin; FP activity change, % at 61.4 µM; 290,000 tested, under 10 active; inconclusive = falling polarisation curve, or a change in total fluorescence; inactive = total fluorescence flat and polarisation flat or rising; no compound was filed as active; the % refers to the polarisation; negative = inhibition;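 further: % of control where 0% means no effect; inhibitors lower the polarisation; unlabelled MLL peptide was the positive control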
Sfp PPTase inh = blocks B. subtilis Sfp PPTase activity; Q9F4F7; Biochemical Sfp PPTase activity, qHTS; Potency, µM, for inactives: max response, negative = inhibition, hits mostly inhibitors; actives 3.5% (n = 310,000); active means well fitted inhibition curve with a large enough effect; inconclusive means small, poorly fitted or top-dose-only effect, or another doubt; inactive means no such curve, though single readings can be large or run the other way;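 further: the enzyme is Sfp with the accession as filed and its product quenches rhodamine fluorescence; potency means the concentration at half of the fitted maximal effect; 0% = enzyme reaction without inhibitor and -100% = no enzyme wells; top concentration of the series not given in the record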
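Sfp 15 nM + cpd, 15 min RT; start w/ rhodamine-CoA 5 uM, BHQ-2-YbbR 12.5 uM (final); 50 mM Hepes pH 7.6, 10 mM MgCl2, 0.01% NP-40, 0.01% BSA; read 525/598 nm at 0 and 30 min.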
ClpP mod = qHTS Assay for Activators of ClpP; actives 1.9% (n = 340,000); Potency, µM (doses to about 57.5 µM), for the others: top-dose activity change, negative = active; AID 651965, 2013; purified B. subtilis ClpP, FRET peptide cleavage, 20 min; ATP-dependent Clp protease proteolytic subunit (Bacillus subtilis (strain 168)), P80244; active = well fitted falling curve with a large enough effect; inconclusive = small, poorly fitted or top-dose-only effect; inactive = no such curve, though single readings can be large or run the other way; further: potency means the concentration at half of the fitted maximal effect; the source files actives as falling curves though it sought activators and does not explain the sign; nearly all actives have a fitted effect of over 65% in size; many hits overshoot -100%
Target sequence (P80244 whole entry, looked up): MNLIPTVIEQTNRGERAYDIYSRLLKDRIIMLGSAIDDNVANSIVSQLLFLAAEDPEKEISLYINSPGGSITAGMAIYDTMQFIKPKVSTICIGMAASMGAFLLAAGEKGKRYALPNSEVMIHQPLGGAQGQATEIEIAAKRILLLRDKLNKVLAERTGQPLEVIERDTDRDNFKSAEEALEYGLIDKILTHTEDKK
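ClpP 10 microg/mL final, pH 8 Tris/KCl buffer with BSA, glycerol, Tween-20; compound pinned in; FRET-FV substrate; RT 20 min; Ex320/Em430; ΔFRET vs ADEP 5.8 microM, DMSO, no enzyme.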
An asterisk follows results filed as active; ? = inconclusive; · = not tested or not shown; & = joins results of further samples; [ ] = remark or other dose.

SMILES	PINK1 expr mod	TRPV1 PAM	TRPML1 ag	TRPML1 inh	Menin-MLL FL inh	Sfp PPTase inh	ClpP mod
Cc1ccc(S(=O)(=O)N2CCOCC2)cc1C(=O)OC(C)C(=O)c1ccccc1 (centres undefined)	1.8%	-32	2.8	5	·	·	·
Cc1cccc(Nc2nn3c(=O)c4cc5c(cc4nc3s2)OCO5)c1	2.3%	·	0.7	-20	·	·	-0.4%
COc1ccc(CN2CCN(Cc3c[nH]c4ccccc34)CC2)cc1OC	0.2%	·	-0.1	22	·	·	0.4%
CCOC(=O)C1CCCN(CC(O)COc2cccc(C)c2)C1 (centres undefined)	0.1%	7	0.7	8	-0.1	13%	-15%
CN(C(=O)COC(=O)CSc1ccc([N+](=O)[O-])cc1)C1CCS(=O)(=O)C1 (centres undefined)	2.1%	1	0.1	-13	·	·	·
COc1cc(/C=N/NS(=O)(=O)c2ccc(C)c([N+](=O)[O-])c2)cc([N+](=O)[O-])c1O	0.2%	5	0.3	26	-8.2	-16%	·
COCCN(C(=O)CCc1nnc(CCc2c[nH]c3ccccc23)o1)C(C)C	2.7%	-4	0.4	11	-3.7	7%	-0.4%
Cc1cccc(Nc2nc(NCc3ccco3)nc(N)c2[N+](=O)[O-])c1	6.2%	15	0.2	5	4.6	8%	·
Cc1cccc(CCNC(=O)Cn2ncc3c([nH]c4ccc(C)cc43)c2=O)c1	-1.6%	-4	0.3	-11	·	-8%	-15%
CC(C)Oc1ccc(C(=O)Nc2nonc2-c2ccc(OC(C)C)cc2)cc1	-0.1%	·	0.2	2	·	·	-1.0%
Cc1nccn1CCc1nc(N)nc(N)n1	?	16	1.4	-17	-1.6	15%	-2.2%
CCOC(=O)c1c(NC(=O)CN2CCN(S(=O)(=O)c3cc(Cl)ccc3Cl)CC2)sc(C(=O)N(C)C)c1C	-1.0%	·	3.5	20	·	·	-10%
C#Cc1ccc([C@@H]2C=C(C(=O)Nc3ccccc3)O[C@H](OCC)[C@H]2CCCO)cc1	3.2%	24	0.9	20	3.2	-8%	0.6%
CCOc1ccc(C(=O)NCCO)cc1	-0.2%	12	0.2	-3	-0.5	24%	0.5%
COc1ccc2nc(N(Cc3cccnc3)C(=O)c3ccc(Cl)cc3)sc2c1	?	·	1.2	-14	·	·	29%
C[C@H](CO)N1C[C@H](C)[C@@H](CN(C)C(=O)NC2CCCCC2)Oc2c(cccc2N(C)C)C1=O	1.0%	·	0.0	36	·	·	-6.4%
Cc1cccc(Sc2ccc([N+](=O)[O-])cc2[N+](=O)[O-])n1	3.8%	9	-0.7	-29	1.1	7%	·
COc1ccc(C(=O)CC2(O)C(=O)N(Cc3ccccc3)c3ccc(Br)cc32)cc1 (centres undefined)	?	·	1.4	-17	·	·	-0.3%
O=C(NCCc1c[nH]c2ccc(Cl)cc12)c1cccnc1	1.4%[38.3 µM]	9	-0.8	-3	-1.8	21%	2.1%
COc1cc(-c2cnc3c(NC=O)cc(-c4ccccc4)cn23)cc(OC)c1OC	7.0%	·	-0.7	·	·	·	-10%
COc1ccc(NC(=O)N2CCC(c3nc4ccccc4[nH]3)CC2)cc1	2.7%	1	-0.6	-2	4.1	9%	·
CCCS(=O)(=O)c1cn2cccc(N)c2c1S(=O)(=O)CCC	-1.3%	-3	0.6	-9	?	?	0.2%
Cc1nc2ccc(NC(=O)CSc3nnc(C)s3)cc2[nH]1	-1.6%	19	0.2	-9	1.3	4%	·
Cc1ccccc1-c1nn(-c2ccc(F)cc2F)cc1CNC1CC1	12%	-11	0.3	6	0.6	12%	·
Cc1cc(C(C2C(=O)CC(C)(C)CC2=O)C2C(=O)CC(C)(C)CC2=O)cc(C)c1OC(F)F	0.1%	4	-0.3	-22	0.5	-10%	·
CCCCCC1CC(CC(=O)NC(=S)Nc2ccccc2Cl)C(=O)O1 (centres undefined)	-0.3%	0	0.3	-17	3.2	17%	·
CCC(=O)Nc1ccc(Nc2ccccc2)cc1	-1.7%	-21	-0.7	23	-3.4	18%	-1.0%
Cc1cc(=O)n(Cc2c(F)cccc2Cl)c2c1c(C)nn2C	1.6%	·	1.1	-8	·	·	0.2%
CCCCc1ccc(CC2S/C(=C(\C#N)C(=O)N3CCOCC3)N(c3ccccc3)C2=O)cc1 (centres undefined)	1.8%	-12	-0.3	0	4.8	5%	0.1%
O=C(CCNC(=O)c1ccc(Cl)cc1)Nc1ccccc1N1CCCCC1	0.1%	-10	0.6	10	·	·	-2.4%
CCOc1ccccc1CNC(=O)c1ccc(-n2c(C)cc3c2CCC(C)C3)cc1 (centres undefined)	0.5%	·	0.2	-6	·	·	-1.5%
Cc1cc(C)cc(NS(=O)(=O)c2ccc3c(c2)NC(=O)C(C)S3)c1 (centres undefined)	-0.6%	·	0.0	10	·	·	-1.1%
Nc1ccc(-c2nc3ccc(-c4nc5ccccc5o4)cc3[nH]2)cc1	2.2%	-5	-0.4	5	3.4	13%	32%
Cn1c(=O)c2[nH]c(N3CCOCC3)nc2n(-c2ccccc2)c1=O	0.8%	-15	-0.1	14	1.1	6%	-2.5%
COc1ccccc1OCc1nnc(SCC(=O)c2cc(Cl)ccc2OC)o1	1.4%[38.3 µM]	19	1.5	51	1.5	5%	-3.3%
CC1(CCl)N([O-])C2=C(CCCC2)[N+]1=O (centres undefined)	0.7%	10	-0.2	17	4.1	35µM*	·
COc1ccc(-c2csc(Nc3ccc(O)cc3)n2)cc1	1.3%	-5	0.4	-9	-2.6	?	0.0%
COc1cc2cc(CCOC(=O)N3CCCCC3)oc(=O)c2cc1OC	-0.3%	2	0.4	24	·	·	-8.2%
CSc1nc2c(c(=O)[nH]c(=O)n2C)n1C/C=C(\C)Cl	?	0	0.6	-16	2.6	-21%	-1.2%
O=C(Nc1cccc(-c2nc3ncccc3o2)c1)c1sc2ccccc2c1Cl	?	·	0.3	-9	4.1	-26%	-1.2%
Cc1cc(=O)oc(C)c1C(=O)NCCNC(=O)c1c(C)cc(=O)oc1C	-0.5%	-3	-0.7	-7	2.2	22%	-27%
O=C(COc1ccccc1)Nc1ccc2nc(SCCOc3ccccc3)sc2c1	-0.3%	·	-0.3	6	·	·	0.4%
CC1OC1c1ccc(-c2ccc(C3OC3C)cc2)cc1 (centres undefined)	0.5%	·	1.0	-11	·	·	·
Brc1cccc(OCCSc2ncccn2)c1	0.1%	-15	0.0	-6	-5.1	-8%	·
O=C(Nc1ccc(OCC(=O)N2CCOCC2)cc1)c1cccc(Cl)c1	2.4%	-5	-0.3	-10	-3.6	15%	-1.6%
C[C@@H]1CN([C@H](C)CO)C(=O)CCCn2cc(nn2)CO[C@H]1CN(C)C(=O)Nc1ccccc1	-2.4%	·	-0.4	12	·	·	1.6%
CC1(C(=O)NS(=O)(=O)C2CC2)CCCN(C(=O)c2cc3ccccc3s2)C1 (centres undefined)	1.5%	·	-0.5	·	·	·	-1.9%
CC1=C(C(=O)Nc2ccccn2)C(c2ccccc2)n2ncnc2N1 (centres undefined)	0.2%	-1	-0.3	-9	1.0	22%	-1.9%
Clc1ccc(-c2nnc(-c3ccc4ccccc4c3)o2)cc1	4.9%	·	0.3	7	·	·	2.0%
COC(=O)CSc1ncnc2c1cnn2-c1ccc(C)cc1C	-0.5%	-6	1.5	-12	4.9	12%	-3.3%
CC1Cc2ccccc2N1C(=O)c1cc2cccnc2n(C)c1=O (centres undefined)	1.4%	4	1.2	33	·	·	-1.9%
Cc1ccc(S(=O)(=O)N2CCCC(C(=O)NCCc3ccc(S(N)(=O)=O)cc3)C2)cc1 (centres undefined)	1.7%	-7	-0.2	2	2.5	3%	·
Cc1cc(Br)cn2c(Cc3cccc(F)c3)c(-c3ccccc3)nc12	5.0%	·	1.7	10	·	·	-2.6%
COCCn1c(SCC(=O)N2CCCc3ccccc32)nc2ccccc2c1=O	-0.6%	?	0.6	-17	2.2	-9%	-4.0%
Cc1cc(C)cc(NC(=O)NCC2CCN(Cc3cc(C)ccc3C)CC2)c1	5.5%&-1.3%	-5	-0.4	-2	-3.8	9%	1.1%&-1.7%
CCOC(=O)c1ccc(NS(=O)(=O)c2ccc3c(c2)CCN3C(=O)CC)cc1	2.3%	·	-1.1	-3	·	·	-3.7%
COC(=O)c1ccccc1NC(=O)c1cc2ccccn2n1	2.6%	·	-0.8	-7	·	·	4.4%
CC1CCCC(C)N1C(=O)COC(=O)c1cncc(Br)c1 (centres undefined)	0.7%	·	0.0	-20	·	·	·
COCC(COS(N)(=O)=O)C(C)C (centres undefined)	0.1%	-2	-0.1	10	-5.4	4%	2.0%
COc1ccc(C(=O)Nc2nc3cc4c(cc3s2)OCCO4)c(OC)c1	2.0%	9	0.2	15	-1.1	4%	-34%
(continued)
SMILES	PINK1 expr mod	TRPV1 PAM	TRPML1 ag	TRPML1 inh	Menin-MLL FL inh	Sfp PPTase inh	ClpP mod
CCOC(=O)c1cc2c(=O)[nH]c(C(Cl)(Cl)Cl)nc2o1	-0.1%	-6	-0.6	-7	-1.8	-17%	3.2%
COc1ccc([N+](=O)[O-])cc1CSc1ccccn1	-0.3%	-5	0.6	-24	-4.4	-29%	0.7%
CCOC(=O)c1nc(N)sc1C(=O)OCC	0.6%	-8	-0.1	-9	11	9%	-7.8%
CC1(C(=O)OCC(=O)NCCNC(=O)COC(=O)C2(C)CC2(Cl)Cl)CC1(Cl)Cl (centres undefined)	2.7%	-19	0.2	4	·	6%	-0.2%
C=CCN1CC2CC3(COc4cc(C)cc(C)c4)C=CC2(O3)C1=O (centres undefined)	0.6%	3	0.8	9	-0.2	18%	1.0%

As a short view, some entries already given.
SMILES	PINK1 expr mod	TRPV1 PAM	TRPML1 ag	TRPML1 inh	Menin-MLL FL inh	Sfp PPTase inh	ClpP mod
COc1ccc(C(=O)Nc2nc3cc4c(cc3s2)OCCO4)c(OC)c1	2.0%	9	0.2	15	-1.1	4%	-34%
CCOC(=O)c1cc2c(=O)[nH]c(C(Cl)(Cl)Cl)nc2o1	-0.1%	-6	-0.6	-7	-1.8	-17%	3.2%
COc1ccc([N+](=O)[O-])cc1CSc1ccccn1	-0.3%	-5	0.6	-24	-4.4	-29%	0.7%
